RecA intein inh: Mtb RecA intein splicing inhibition; P9WHJ3; cell-free RecA intein splicing, fluorescence; inhibition, %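 (about 9 µM by stock and volumes)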; hit rate 0.75% among 290,000; in the data active means inhibition above about 30%; inconclusive means no clear call, values can overlap the other calls;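 further: 0% = vehicle wells and 100% = reference inhibitor control wells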
Target sequence (P9WHJ3 whole entry, looked up): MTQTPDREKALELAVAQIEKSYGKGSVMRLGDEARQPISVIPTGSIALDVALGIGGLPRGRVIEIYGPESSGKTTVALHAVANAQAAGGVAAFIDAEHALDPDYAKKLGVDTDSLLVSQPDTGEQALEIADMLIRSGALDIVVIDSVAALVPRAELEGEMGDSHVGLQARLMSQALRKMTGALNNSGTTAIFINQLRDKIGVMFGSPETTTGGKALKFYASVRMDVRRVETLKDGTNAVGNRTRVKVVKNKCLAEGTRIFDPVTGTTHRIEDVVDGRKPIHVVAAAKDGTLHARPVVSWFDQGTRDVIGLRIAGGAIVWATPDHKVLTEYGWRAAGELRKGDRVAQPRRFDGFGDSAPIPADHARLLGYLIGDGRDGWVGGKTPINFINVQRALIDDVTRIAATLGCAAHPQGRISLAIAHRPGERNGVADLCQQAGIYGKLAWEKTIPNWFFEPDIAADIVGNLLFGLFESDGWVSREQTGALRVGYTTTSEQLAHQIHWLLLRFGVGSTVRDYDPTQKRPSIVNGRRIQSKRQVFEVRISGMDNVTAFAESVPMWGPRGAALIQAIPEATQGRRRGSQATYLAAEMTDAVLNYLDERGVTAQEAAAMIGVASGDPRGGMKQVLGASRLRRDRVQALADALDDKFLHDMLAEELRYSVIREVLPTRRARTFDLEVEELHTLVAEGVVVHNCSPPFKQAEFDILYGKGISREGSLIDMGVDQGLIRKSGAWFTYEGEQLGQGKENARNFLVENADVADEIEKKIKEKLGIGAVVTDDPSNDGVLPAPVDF
Arbovirus anti: arbovirus infection inhibition | hit rate 0.37% among 200,000 | inhibition, % at 10 µM | AID 1251 | arbovirus infection cell-based antiviral screen;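 active means inhibition from about 30%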;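 further: bluetongue infection of BSR cells; cell survival read as ATP light after 72 h; 0% = infected wells without compound and 100% = uninfected wells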
Mtb bLac sens: beta-lactam sensitization of Mtb H37Rv; hit rate 0.27% among 330,000; AID 434955; M. tuberculosis H37Rv growth with meropenem, percent inhibition; hits of this screen are not shown here; inhibition, % at 25 µM;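 active means about 74% or more and at least 40 points above the plate without the antibiotic, then above 30% in a dose series; inconclusive means first-round hits that could not be retested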;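 further: growth measured after seven days incubation then overnight dye step; 0% = bacteria only wells and 100% = bacteria with antibiotic; twin plates without the antibiotic show which effects depend on it; some results filed as inactive read as strong as hits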
Mtb growth: M. tuberculosis H37Rv growth inhibitors, H37Rv strain (AID 1626); inhibition, % at 10 µM, or IC50 in µM where a hit was titrated; hit rate 0.95% among 220,000; M. tuberculosis H37Rv growth inhibition; higher % means a stronger effect;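 active means confirmed in a dose series; inconclusive means inhibition above 80% but not taken into the dose series; inactive means below 80% or under 30% at every dose of the series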;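 further: bacteria incubated seven days before Alamar blue readout; 0% = bacteria only wells and 100% = bacteria with antibiotic wells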
YopH inh: inhibitors of Yersinia enterocolitica YopH tyrosine phosphatase | fluorescence Ex485/Em525 | inhibition, %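 (about 10 µM by stock and volumes)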 | hit rate 0.16% among 140,000;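 active means inhibition of 50% or more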;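 further: controls were vehicle for no effect and minimum signal wells for full effect; inactives centre near -20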
Arbovirus anti repeat: further read-out of Arbovirus anti, marked with its call; inhibition, %; measured here: 10K subset replicate screen; many hits read low in the repeat;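 first of two repeat runs on a subset; 0% = infected and 100% = uninfected wells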
Starred values were filed as active, the others as inactive; ? = inconclusive; · = not tested or not shown. Only part of the results is shown. The share of hits here may be higher or lower than overall.

SMILES	RecA intein inh	Arbovirus anti	Mtb bLac sens	Mtb growth	YopH inh	others
Cc1cccc(C)c1Nc1nnc(SC(C)C(=O)Nc2c(C)n(C)n(-c3ccccc3)c2=O)s1 (configuration not stated)	·	-1	2	-7%	-29
COc1ccc(OC)c(NC(=O)CN(C)S(=O)(=O)c2ccc3nc(C)sc3c2)c1	-1.2	-2	3	4%	0
O=C(COc1cc(Cl)c(Cl)cc1Cl)NCCN1CCOCC1	-0.6	-5	-7	-18%	-19
CC(C)(O)C#Cc1ccc(C(=O)NCCC(=O)O)s1	-0.9	2	1	1%	·
CCOC(=O)CSc1nc2cc(S(=O)(=O)Nc3ccccc3OC)ccc2o1	-0.5	3	·	56%	-21
CC(C)(C)c1cc(N2CCOCC2)n2ncc(-c3ccc(Cl)cc3)c2n1	-51	·	9	·	·
CC(NC(=O)CCc1nnc(-c2ccccc2)o1)c1ccccc1 (configuration not stated)	-6.9	4	-3	-11%	·
Cc1ccc(OCC(=O)NC2=NCCS2)cc1	8.1	9	-7	7%	-24
CCOC(=O)CC1C(=O)NCCN1S(=O)(=O)c1ccc(Cl)c(Cl)c1 (configuration not stated)	·	6	3	-1%	-15
OCCC1CN(Cc2ccc3nonc3c2)CCN1Cc1ccsc1 (configuration not stated)	-3.6	-3	-7	-10%	·

Compounds listed so far containing nitrogen in an aromatic ring, in the order listed:
SMILES	RecA intein inh	Arbovirus anti	Mtb bLac sens	Mtb growth	YopH inh	others
Cc1cccc(C)c1Nc1nnc(SC(C)C(=O)Nc2c(C)n(C)n(-c3ccccc3)c2=O)s1 (configuration not stated)	·	-1	2	-7%	-29
COc1ccc(OC)c(NC(=O)CN(C)S(=O)(=O)c2ccc3nc(C)sc3c2)c1	-1.2	-2	3	4%	0
CCOC(=O)CSc1nc2cc(S(=O)(=O)Nc3ccccc3OC)ccc2o1	-0.5	3	·	56%	-21
CC(C)(C)c1cc(N2CCOCC2)n2ncc(-c3ccc(Cl)cc3)c2n1	-51	·	9	·	·
CC(NC(=O)CCc1nnc(-c2ccccc2)o1)c1ccccc1 (configuration not stated)	-6.9	4	-3	-11%	·
OCCC1CN(Cc2ccc3nonc3c2)CCN1Cc1ccsc1 (configuration not stated)	-3.6	-3	-7	-10%	·

(continued)
SMILES	RecA intein inh	Arbovirus anti	Mtb bLac sens	Mtb growth	YopH inh	others
Oc1ccc(COCc2ccccc2)c2cccnc12	-11	-10	100	3µM*	-41
O=C1NN(c2ccc(Cl)c(Cl)c2)C(=O)/C1=C/c1ccc(-c2ccccc2C(=O)O)o1	-4.8	·	-1	·	·
Cc1ccc(C(=O)n2c(-c3ccccc3)cnc2SCC(=O)Nc2ccc(C)cc2C)cc1	13	-2	3	3%	-21
O=C1CC(N(O)c2ccccc2)C(=O)N1c1ccc(Cl)c(Cl)c1 (configuration not stated)	-3.9	·	37	46%	·
CCC(C)[C@H](NC(=O)c1cn(CC)c2cc3c(cc2c1=O)OCO3)C(=O)NCCCn1ccnc1 (some centres not stated)	-1.9	·	-5	·	·
COc1ccc2c(-c3ccccc3)cc(=S)[nH]c2c1	-1.6	·	-3	·	·
CCC(C)(C)n1nnnc1C(c1ccccn1)N1CCCCC1 (configuration not stated)	-0.3	4	-13	1%	-22
COc1cc(C)nc(N2CCC(C(=O)NCC3CCCO3)CC2)n1 (configuration not stated)	-1.8	·	-5	·	·
CC(=O)N1CCc2cc(S(=O)(=O)CCC(=O)NCCc3ccc(Cl)cc3)ccc21	2.9	·	-13	·	·
C/C=C(\C)C(=O)NCCN1C2=NC[C@@H](Cc3ccccc3)N2C[C@@H]1Cc1ccc(OC)cc1	2.3	·	-3	1%	·
CC1(C)CC(C(=O)Nc2nccs2)CCO1 (configuration not stated)	0.5	2	-11	-2%	-9
CCCCn1c(N)c(N(CC)C(=O)c2ccc(Cl)c(Cl)c2)c(=O)[nH]c1=O	-3.5	·	0	·	·
COC(=O)CC1COc2ccccc2N1C(=O)/C=C/c1ccccc1 (configuration not stated)	7.0	·	8	·	·
Cc1ccc(NC(=O)COC(=O)/C=C/c2c(C)nn(-c3ccc(F)cc3)c2Cl)cc1F	0.6	2	7	0%	-25
CC(=O)CSc1nnc2c3ccccc3nc(C(C)(C)C)n12	0.7	-14	1	-6%	·
Cc1ccc(C(=O)N2CCC3(CC2)NCCc2[nH]cnc23)cc1	1.7	·	2	·	·
Cn1nc(NC(=O)CC(C)(C)CC(=O)O)c2ccccc21	0.8	·	22	2%	·
O=C(CSc1n[nH]c(-c2cccs2)n1)N1CCN(S(=O)(=O)c2ccccc2)CC1	2.1	1	6	-4%	-98
Cc1ccc(S(=O)(=O)N2CCN(S(=O)(=O)N(C)C)CC2)c(C)c1	3.1	6	5	-6%	-11
CC(C)CCNC(=O)c1ccc(CSCc2cccc(F)c2)o1	6.7	19	0	-3%	-21
Nn1c(Cc2cccc3ccccc23)nnc1SCc1ccccc1	5.6	14	6	9%	-17
CCOCCCNC(=O)C1CCN(S(=O)(=O)N2CC(C)CC(C)C2)CC1 (configuration not stated)	·	9	0	-11%	-34
C/C(=N\NC(=O)c1nn(C)c(C)c1Br)c1ccc(NC(=O)c2ccoc2C)cc1	0.1	-5	4	2%	-38
CCN1C(=O)/C(=C2/C=CC=CN2C)SC1=S	0.1	6	-8	-7%	-36
COc1ccc(OCc2cc(C(=O)N(C)Cc3cc(C)no3)no2)c(Cl)c1	1.3	·	-1	·	·
O=S(=O)(Oc1ccccc1N1CCCCC1)c1ccccc1	17	·	20	-5%	·
CCOC(=O)C1CCN(C(=O)COC(=O)c2ccc3c(c2)C(=O)N(c2ccc(OCC)cc2)C3=O)CC1	-1.1	12	91	?	·
Cc1c(C)n(CCc2ccccc2)c2ncnc(NCCCN(C)C)c12	-0.9	·	8	·	·
CC(C)CCNC(=O)CN(CCCN1CCOCC1)C(=O)Cn1nnc(-c2ccc(F)cc2)n1	-1.3	3	-9	-8%	-28
CN1CCN(c2nccc3c2ncn3C)CC1	-3.2	-3	-13	7%	-42

Three entries from above, ordered by molecular weight, highest first.
SMILES	RecA intein inh	Arbovirus anti	Mtb bLac sens	Mtb growth	YopH inh	others
Cc1c(C)n(CCc2ccccc2)c2ncnc(NCCCN(C)C)c12	-0.9	·	8	·	·
CC(=O)CSc1nnc2c3ccccc3nc(C(C)(C)C)n12	0.7	-14	1	-6%	·
CN1CCN(c2nccc3c2ncn3C)CC1	-3.2	-3	-13	7%	-42

(cont.)
SMILES	RecA intein inh	Arbovirus anti	Mtb bLac sens	Mtb growth	YopH inh	others
CCn1cc(S(=O)(=O)CC(=O)N2CCc3ccccc32)c2ccccc21	0.3	·	1	5%	·
CC(=NCc1ccc2c(c1)OCO2)c1c(O)n(C)c(=O)n(C)c1=O	2.4	-32	-7	-10%	-31
COC(=O)c1nnc(-c2ccccc2)c(-c2ccccc2)n1	-2.2	3	57	-6%	-52	Arbovirus anti repeat=4
Cc1ccc(CN2CCC(n3nccc3NC(=O)C3CCOC3)CC2)cc1 (configuration not stated)	-1.1	·	-1	·	·
Cc1ccc(S(=O)(=O)n2nc(OC(=O)c3ccccc3F)cc2N)cc1	2.6	·	6	·	·
CC(C)(C)c1ccc(NC(=O)Nc2ccc3ccccc3n2)cc1	1.8	·	32	3%	·
COC(=O)N/N=C/c1ccccc1	4.8	3	-11	3%	·
Cc1ccc(NC(=O)NNC(=O)c2sccc2-n2cccc2)cc1	·	6	-5	-2%	·
C[C@]1(C(=O)O)Cc2oncc2C[C@@H]1C(=O)O	-1.6	9	-11	5%	-25
COCCCNc1ncnc2sc3c(c12)CCC(C)C3 (configuration not stated)	1.6	-1	32	4%	35

Next section; the last seven above are carried over.
SMILES	RecA intein inh	Arbovirus anti	Mtb bLac sens	Mtb growth	YopH inh	others
Cc1ccc(CN2CCC(n3nccc3NC(=O)C3CCOC3)CC2)cc1 (configuration not stated)	-1.1	·	-1	·	·
Cc1ccc(S(=O)(=O)n2nc(OC(=O)c3ccccc3F)cc2N)cc1	2.6	·	6	·	·
CC(C)(C)c1ccc(NC(=O)Nc2ccc3ccccc3n2)cc1	1.8	·	32	3%	·
COC(=O)N/N=C/c1ccccc1	4.8	3	-11	3%	·
Cc1ccc(NC(=O)NNC(=O)c2sccc2-n2cccc2)cc1	·	6	-5	-2%	·
C[C@]1(C(=O)O)Cc2oncc2C[C@@H]1C(=O)O	-1.6	9	-11	5%	-25
COCCCNc1ncnc2sc3c(c12)CCC(C)C3 (configuration not stated)	1.6	-1	32	4%	35
O=C1NC(=O)C2(COC(c3cccnc3)OC2)S1 (configuration not stated)	-2.0	0	-3	-1%	-10
COc1cccc(/C=N/NC(=O)c2csc(-n3nc(C)cc3C(F)(F)F)n2)c1	3.6	-6	10	-4%	-7
COC(=O)[C@@H](NC(=O)NC1CCCc2ccccc21)C(C)C (some centres not stated)	-1.9	1	-1	0%	-23
N=C1c2ccccc2CN1NC(=O)C1CC1	-0.5	-5	2	0%	-20
CCOC(=O)C(=CN(CCc1ccccc1)CC(=O)OC)C(=O)OCC	-7.4	-5	-4	-12%	-25
COC(=O)c1c(NC(=O)CN2CCN(C(=O)c3ccco3)CC2)c2c(C)cccc2n1C	21	10	-7	4%	-32
CC(C)(C)c1ccc(C(=O)Nc2ccccc2NC(=O)c2ccco2)cc1	7.8	-6	92	14%	-2
O=C(COC(=O)c1cccc(Cl)c1)NCCN1C(=O)CSC1=O	1.0	11	-6	4%	-4
COc1ccc(CNc2ccc3c(c2)ncn3C)cc1OC	-2.4	·	4	·	·
O=C(Cn1nnc2ccccc21)NC1CCCCC1	-0.8	-5	-10	-3%	0
Cc1ccc(OCC(=O)N2CCN(S(C)(=O)=O)CC2)cc1	-2.2	·	-2	-2%	·
O=S(=O)(Nc1cccc(-n2cnnn2)c1)c1ccc(Cl)nc1	-2.2	·	?	·	·
CCCNC(=O)Cn1cnc([N+](=O)[O-])n1	-0.5	0	-1	-2%	-16
CCC(Sc1nc2n[nH]c(C)c2c(=N)n1-c1cc(Cl)ccc1C)C(=O)N1CCOCC1 (configuration not stated)	-9.9	-5	-2	3%	-42
Cc1ccc(C)c(SCC(=O)Nc2ccc(S(=O)(=O)Nc3ncccn3)cc2)c1	3.7	·	-8	8%	·
COc1cccc(N/N=C/c2cccc(Br)c2O)c1	8.3	·	14	-1%	·
Cc1c(Cl)cccc1NC(=S)NCC(O)c1ccccc1 (configuration not stated)	-0.4	·	92	·	·
Cc1ccc(-c2nc(-c3ccccn3)no2)cc1	0.5	-9	4	12%	-27	Arbovirus anti repeat=-6
COc1ccc(CNC(=O)C2CCN(C(=O)c3sccc3-n3cccc3)CC2)cc1	3.0	·	-14	·	·
CCOC(=O)N1CCC(NC(=O)C2CCN(S(=O)(=O)N3CCC(C)CC3)CC2)CC1	·	-4	3	-4%	-41
O=C(N/N=C/c1ccncc1)C1CC1C(=O)N/N=C/c1ccncc1 (configuration not stated)	2.2	5	-4	-8%	-32
CCCc1cc(C(=O)Nc2cccc([N+](=O)[O-])c2)cs1	2.1	·	-1	·	·
CC(C)C(NS(=O)(=O)c1ccc2c(c1)oc(=O)n2C)C(=O)N1CCN(c2ccccc2F)CC1 (configuration not stated)	·	4	8	-5%	-37	Arbovirus anti repeat=2
Cc1ccc2nsnc2c1NC(=O)c1ccc([N+](=O)[O-])o1	25	·	98	·	·
CC(=O)OC1N=C(c2ccccc2)c2cc(C)ccc2NC1=O (configuration not stated)	3.1	3	-8	0%	4
COc1ccc(OC)c(NS(=O)(=O)c2c(C)nc3sccn3c2=O)c1	3.2	·	5	·	·
COc1ccc(CCNC(=O)c2c[nH]c3ccccc3c2=O)cc1OC	1.3	-4	-4	2%	-25
CC(=O)OCC(=O)[C@@]1(O)CC[C@H]2[C@@H]3CCC4=CC(=O)C=C[C@]4(C)[C@H]3C(=O)C[C@@]21C	-0.8	·	?	·	·
O=C(COc1ccc(F)cc1)OCCN1CCOCC1	3.2	2	2	4%	-11
Cc1ccc(Oc2ccc(S(=O)(=O)N3CCOCC3)cc2C(N)=O)cc1C	0.5	·	-14	·	·
Cc1ccc(C2=N/C(=C/c3cccs3)C(=O)N2Nc2ccccc2)cc1	3.6	-38	16	3%	-30
CCc1cc(=O)oc2cc(C)cc(OCC(=O)NC(Cc3c[nH]c4ccc(O)cc34)C(=O)O)c12 (configuration not stated)	-4.3	·	-2	·	·
CCc1cccc(CC)c1NC(=O)COC(=O)CC1c2ccccc2CCN1S(=O)(=O)c1ccc(F)cc1 (configuration not stated)	5.1	6	2	10%	-18
Cc1ccc(NC(=O)CCC(=O)N/N=C/c2cccnc2)cc1	0.3	·	-1	·	·
COc1ccc(CNCc2cccc3ccccc23)cc1	1.1	·	2	·	·
